From PubChem BioAssay
Vaccinia stage: blocks a specific stage of Vaccinia orthopoxvirus infection; Vaccinia-infected cells, mCherry/Venus stage reporter fluorescence; hits give low values; some inactives read as strong as hits; activity change (mCherry), % (test concentration not listed); hit rate 0.01% among 89,000; AID 1053133;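 active = mCherry past -33% and 40 or more points under the early reporter, replicates agreeing; inconclusive = past -33% without that gap or agreement; tested in A549 cells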;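 also: scaled between vehicle wells and reference inhibitor wells; 23 nL library stock went into each well; one replicate is shown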
Vaccinia stage Venus: further read-out of Vaccinia stage, marked with its call; activity change (Venus), %; measured here: Venus reporter, other viral stage;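 negative = less Venus signal; first of two replicates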
* hit, by the source's call; ? = inconclusive; / = not tested or not shown. The list is partial, so the mix of outcomes need not match the whole.

SMILES | Vaccinia stage | Vaccinia stage Venus
Cc1ccc(S(=O)(=O)Nc2ccc3c(c2)C(=O)N([C@@H](C)CO)C[C@H](C)[C@@H](CN(C)C(=O)Nc2ccc(F)cc2)OCCCC[C@@H](C)O3)cc1 | ? | /
CO[C@H]1CN(C)C(=O)c2ccc(NC(=O)c3ccc(F)cc3)cc2OC[C@H](C)N(C(=O)c2ccc(F)cc2)C[C@@H]1C | -87* | -40*
Cc1noc(C)c1NC(=O)N(C)C[C@H]1OCCCC[C@@H](C)Oc2ccc(NS(=O)(=O)c3ccccc3)cc2C(=O)N([C@@H](C)CO)C[C@H]1C | 22 | 5
CCCc1cn(CC[C@@H]2CC[C@H](NC(=O)Nc3ccc4c(c3)OCO4)[C@H](CO)O2)nn1 | 4 | 15
C=CCNC(=O)[C@H]1[C@@H]2C(=O)O[C@@H](c3ccccc3)[C@@H](c3ccccc3)N2[C@@H](c2ccc(O)cc2)[C@]12C(=O)N(C(=O)OCCOC)c1ccc(C#Cc3ccc(OC)cc3)cc12 | 13 | 13
CCCNC(=O)C[C@@H]1CC[C@H]2[C@@H](COc3ccc(NC(=O)NCCC)cc3C(=O)N2C)O1 | 5 | 0
C[C@H]1CN([C@@H](C)CO)C(=O)Cc2cc(NC(=O)c3ccncc3)ccc2O[C@H]1CN(C)S(=O)(=O)c1cccs1 | 13 | 5
C[C@H](CO)N1C[C@H](C)[C@@H](CN(C)C(=O)C2CC2)Oc2ncc(C#Cc3cccc(F)c3)cc2C1=O | 7 | 0
C[C@H](NC(=O)C[C@@H]1CC[C@H](NC(=O)c2cccnc2)[C@H](CO)O1)c1ccccc1 | 1 | 2
COc1ccccc1-c1cccc(-c2nc(C(=O)NCc3ccncc3)cc3c2[C@@H](CCO)N([S@](=O)C(C)(C)C)C3)c1 | ? | /
CCNC(=O)[C@H]1[C@H](CO)[C@H]2Cn3c(ccc(-c4cccc(F)c4)c3=O)[C@@H]1N2C(=O)c1cnccn1 | 5 | 1
C[C@@H]1CN([C@H](C)CO)C(=O)CCCn2nncc2CO[C@@H]1CN(C)Cc1ccc(O)cc1 | 10 | 10
C/C=C/c1ccc2c(c1)O[C@@H](CN(C)Cc1ccccc1F)[C@H](C)CN([C@@H](C)CO)S2(=O)=O | ? | /
C[C@@H]1CN([C@@H](C)CO)S(=O)(=O)c2ccc(-c3cccnc3)cc2O[C@@H]1CN(C)Cc1cncnc1 | 17 | 17
CCCNC(=O)Nc1ccc2c(c1)C(=O)N(C)[C@H]1CC[C@H](CC(=O)Nc3cc(F)ccc3F)O[C@@H]1CO2 | -5 | -5
COc1ccc(CN(C)C[C@H]2Oc3ccc(NS(C)(=O)=O)cc3CC(=O)N([C@H](C)CO)C[C@@H]2C)cc1 | 7 | 1
O=C(Nc1ccc2c(c1)OCO2)N[C@@H]1C=C[C@@H](CC(=O)N2CCN(c3ccccc3)CC2)O[C@@H]1CO | -9 | 0
COc1ccc(NC(=O)N2C[C@@H](O)COC[C@@H]3O[C@H](CC(=O)N4CCN(C)CC4)CC[C@H]32)cc1 | 9 | 17
O=C(C1CCOCC1)N1CC[C@@H]2[C@@H](CO)Nc3ccc(-c4ccc(F)cc4)cc3[C@@H]21 | -6 | -1
Cc1noc(C)c1S(=O)(=O)Nc1ccc2c(c1)CC(=O)N([C@H](C)CO)C[C@H](C)[C@H](CN(C)C(=O)Nc1cccc3ccccc13)O2 | 10 | 10
Cc1ccc(S(=O)(=O)N(C)C[C@@H]2Oc3ccc(NC(=O)CCN4CCOCC4)cc3CC(=O)N([C@H](C)CO)C[C@@H]2C)cc1 | 16 | 4
COc1ccc(NC(=O)Nc2ccc3c(c2)C(=O)N([C@@H](C)CO)C[C@@H](C)[C@@H](CN(C)S(=O)(=O)c2cccs2)OCCCC[C@H](C)O3)cc1 | -3 | -4
CCCC#Cc1ccc([C@H]2[C@@H](CO)N3C(=O)CN(C(=O)Cc4cccnc4)C[C@@H]23)cc1 | 13 | 3
C[C@@H]1CCCCO[C@@H](CN(C)C(=O)CCCN(C)C)[C@@H](C)CN([C@H](C)CO)C(=O)c2cc(NC(=O)c3ccccc3)ccc2O1 | -9 | -13
CNC[C@@H]1OCCCC[C@H](C)Oc2ccc(N(C)C)cc2C(=O)N([C@H](C)CO)C[C@@H]1C | 6 | 1
C[C@H]1CCCCO[C@@H](CN(C)Cc2ccccc2)[C@@H](C)CN([C@@H](C)CO)C(=O)c2cc(NS(=O)(=O)c3ccccc3)ccc2O1 | ? | /
C[C@]1(C(=O)NCc2ccccc2)c2ccccc2C(=O)N(Cc2ccc(OC(F)(F)F)cc2)[C@H]1c1ccc(CO)cc1 | -17 | -6
CC(=O)N1CCCCN2[C@H](CO)[C@@H](c3ccc(-c4cccc(C)c4)cc3)[C@@H]2C1 | -12 | -12
COc1ccc2c3c([nH]c2c1)[C@@H](CO)N(C(=O)C1CCCCC1)CC31CN(C(=O)NC(C)C)C1 | 1 | -1
C[C@@H]1CCCCO[C@H](CN(C)S(=O)(=O)c2cccs2)[C@@H](C)CN([C@H](C)CO)C(=O)c2cc(NC(=O)Nc3ccc(C(F)(F)F)cc3)ccc2O1 | 10 | 5
CCCN1C[C@@H](C)[C@H](OC)CN(C)C(=O)c2cc(NC(=O)C3CCOCC3)ccc2OC[C@@H]1C | 7 | 9
Cc1noc(C)c1NC(=O)Nc1ccc2c(c1)C(=O)N([C@@H](C)CO)C[C@H](C)[C@@H](CN(C)Cc1ccc(C(F)(F)F)cc1)OCCCC[C@@H](C)O2 | ? | /
COCC(=O)Nc1ccc2c(c1)[C@@H]1C[C@H](CC(=O)NCc3ccc(-c4ccccc4)cc3)O[C@H](CO)[C@@H]1O2 | 16 | 16
COc1ccc(NC(=O)N(C)C[C@@H]2Oc3c(NC(=O)C4CC4)cccc3C(=O)N([C@H](C)CO)C[C@@H]2C)cc1 | 2 | 6
O=C(C[C@@H]1CC[C@@H]2[C@H](COC[C@H](O)CN2Cc2ccccc2)O1)N[C@H]1CCN(Cc2ccccc2)C1 | -18 | -5
C[C@H](CO)N1C[C@H](C)[C@H](CN(C)S(=O)(=O)c2cccs2)Oc2ccc(NC(=O)NC3CCCCC3)cc2C1=O | -12 | -8
CCCC(=O)Nc1ccc2c(c1)OC[C@H](C)N(C(C)=O)C[C@@H](C)[C@@H](OC)CN(C)C2=O | 17 | 13
CC(C)C#Cc1ccc([C@H]2[C@@H](CO)N3C(=O)CN(C(=O)c4ccccn4)C[C@@H]23)cc1 | 6 | 4
CCS(=O)(=O)N1CC2(C1)[C@H](c1ccccc1)[C@H](CO)N2C(=O)c1ccccc1 | 5 | 9
COCC(=O)Nc1ccc2c(c1)OC[C@H](C)N(C(=O)Cc1cccnc1)C[C@@H](C)[C@@H](OC)CN(C)C2=O | 5 | 8
C[C@@H]1CN([C@H](C)CO)C(=O)c2cc(NC(=O)C3CCCCC3)ccc2O[C@@H](C)CCCCO[C@@H]1CN(C)C(=O)Nc1cccc2ccccc12 | -3 | -6
N#C[C@H]1[C@@H](c2ccc(/C=C/c3ccccc3)cc2)[C@@H](CO)N1C(=O)C1CCCCC1 | -2 | -3
O=C(C[C@H]1C[C@H]2c3cc(NC(=O)Nc4ccccc4F)ccc3O[C@H]2[C@@H](CO)O1)NC1CCCCC1 | 3 | 9
Cc1noc(C)c1S(=O)(=O)Nc1ccc2c(c1)CC(=O)N([C@@H](C)CO)C[C@@H](C)[C@H](CN(C)Cc1ccc(C(=O)O)cc1)O2 | 15 | 19
C[C@H]1CN([C@@H](C)CO)C(=O)CCCn2cc(nn2)CO[C@H]1CN(C)Cc1ccccc1C(=O)O | 15 | 15
Cc1noc(C)c1S(=O)(=O)Nc1ccc2c(c1)C(=O)N([C@H](C)CO)C[C@H](C)[C@H](CN(C)C(=O)Nc1ccc(C(F)(F)F)cc1)OCCCC[C@@H](C)O2 | -1 | -13
COc1ccc(S(=O)(=O)Nc2cccc3c2O[C@@H](CN(C)C(=O)NC2CCCCC2)[C@H](C)CN([C@@H](C)CO)C3=O)cc1 | 1 | -1
O=C(O)C[C@H]1C[C@@H]2c3cc(NC(=O)C4CCC4)ccc3O[C@@H]2[C@H](CO)O1 | 10 | 11
C[C@H]1CN([C@@H](C)CO)C(=O)c2cc(NC(=O)Nc3ccccc3)ccc2O[C@H]1CN(C)C(=O)Nc1ccc(F)cc1 | 16 | 8
O=S(=O)(N[C@H]1CC[C@H](CCn2cc(C3(O)CCCC3)nn2)O[C@H]1CO)c1ccc(Cl)cc1 | -2 | -1

4 successive entries already listed, for reference:
SMILES | Vaccinia stage | Vaccinia stage Venus
COc1ccc(S(=O)(=O)Nc2cccc3c2O[C@@H](CN(C)C(=O)NC2CCCCC2)[C@H](C)CN([C@@H](C)CO)C3=O)cc1 | 1 | -1
O=C(O)C[C@H]1C[C@@H]2c3cc(NC(=O)C4CCC4)ccc3O[C@@H]2[C@H](CO)O1 | 10 | 11
C[C@H]1CN([C@@H](C)CO)C(=O)c2cc(NC(=O)Nc3ccccc3)ccc2O[C@H]1CN(C)C(=O)Nc1ccc(F)cc1 | 16 | 8
O=S(=O)(N[C@H]1CC[C@H](CCn2cc(C3(O)CCCC3)nn2)O[C@H]1CO)c1ccc(Cl)cc1 | -2 | -1

(next part)
SMILES | Vaccinia stage | Vaccinia stage Venus
C[C@H](CO)N1C[C@H](C)[C@H](CN(C)Cc2ccc(C(=O)Nc3ccccc3N)cc2)Oc2ccc(NS(=O)(=O)c3ccc(F)cc3)cc2CC1=O | 0 | 4
CCS(=O)(=O)N1CC(=O)N2[C@@H](CO)[C@@H](c3ccc(C#CC4CCCCC4)cc3)[C@@H]2C1 | -1 | -5
C[C@@H]1CCCCO[C@@H](CN(C)Cc2ccc(C(F)(F)F)cc2)[C@H](C)CN([C@@H](C)CO)C(=O)c2cc(NC(=O)Nc3ccc4c(c3)OCO4)ccc2O1 | 3 | 1
CCC(=O)N1CCCCN2[C@H](CO)[C@H](c3ccc(C#Cc4cccnc4)cc3)[C@H]2C1 | 25 | 0
O=C(CC1CC1)N1[C@@H](CO)[C@@H]2c3ccccc3N(S(=O)(=O)c3ccccc3)C[C@@H]21 | -9 | -1
CC(=O)N1[C@@H]2c3ccc(C4=CCCCC4)c(=O)n3C[C@H]1[C@H](CO)[C@H]2C(=O)N[C@@H](C)c1ccccc1 | -10 | -4
Cc1noc(C)c1NC(=O)N[C@@H]1CC[C@@H](CC(=O)N2CCN(C)CC2)O[C@H]1CO | 9 | 4
CN1CCN(C(=O)C2=C[C@@H](C3CC3)C[C@@H](OCc3ccc(CO)cc3)O2)CC1 | 13 | 9
CN1CCN(C(=O)C[C@@H]2CC[C@H]3[C@@H](COC[C@H](O)CN3C(=O)Nc3ccc4c(c3)OCO4)O2)CC1 | 1 | 2
CC(C)C#Cc1ccc2c(c1)O[C@H](CN(C)Cc1cccnc1)[C@@H](C)CN([C@H](C)CO)S2(=O)=O | ? | /
OC[C@H]1[C@H](c2ccc(-c3cccc(F)c3)cc2)[C@@H]2CN(Cc3cncnc3)CCCCN12 | 2 | 4
CCNC(=O)C[C@@H]1CC[C@H]2[C@H](COc3ccc(NC(=O)Nc4ccccc4F)cc3C(=O)N2C)O1 | 4 | 8
C[C@H]1CN([C@@H](C)CO)S(=O)(=O)c2ccc(C#CCN(C)C)cc2O[C@H]1CN(C)Cc1ccccc1F | -6 | 0
COc1ccc(CN(C)C[C@H]2Oc3c(NC(=O)C4CCCCC4)cccc3C(=O)N([C@H](C)CO)C[C@H]2C)cc1 | 3 | -2
CO[C@H]1CN(C)C(=O)c2ccc(NS(=O)(=O)c3ccc(Cl)cc3)cc2OC[C@H](C)N(C(=O)NC(C)C)C[C@@H]1C | -11 | -6
O=C(Nc1ccc(C(F)(F)F)cc1)N[C@@H]1C=C[C@H](CC(=O)N2CCCCC2)O[C@@H]1CO | 13 | -12
CO[C@@H]1CN(C)C(=O)c2ccc(NC(=O)C3CCCCC3)cc2OC[C@H](C)N(C)C[C@@H]1C | 3 | -1
O=C(C[C@H]1CC[C@@H]2[C@H](COC[C@@H](O)CN2C(=O)Nc2ccc(F)cc2)O1)NCCCN1CCOCC1 | 9 | 12
O=C(C[C@H]1CC[C@@H]2[C@H](COC[C@H](O)CN2S(=O)(=O)c2ccc(Cl)cc2)O1)N[C@@H]1CCN(Cc2ccccc2)C1 | ? | /
O=C(NCC[C@H]1CC[C@H](NC(=O)C2CCCCC2)[C@H](CO)O1)c1cc(Cl)cc(Cl)c1 | 10 | 10
COc1ccc2c3c(n(C)c2c1)[C@@H](CO)N(Cc1ccccc1F)CC31CN(C(C)=O)C1 | 1 | 0

Fetched by structure from the list above, two records:
SMILES | Vaccinia stage | Vaccinia stage Venus
CCS(=O)(=O)N1CC(=O)N2[C@@H](CO)[C@@H](c3ccc(C#CC4CCCCC4)cc3)[C@@H]2C1 | -1 | -5
CC(=O)N1CCCCN2[C@H](CO)[C@@H](c3ccc(-c4cccc(C)c4)cc3)[C@@H]2C1 | -12 | -12

Entries above containing two or more sulfur atoms (four):
SMILES | Vaccinia stage | Vaccinia stage Venus
C[C@H]1CN([C@@H](C)CO)C(=O)Cc2cc(NC(=O)c3ccncc3)ccc2O[C@H]1CN(C)S(=O)(=O)c1cccs1 | 13 | 5
COc1ccc(NC(=O)Nc2ccc3c(c2)C(=O)N([C@@H](C)CO)C[C@@H](C)[C@@H](CN(C)S(=O)(=O)c2cccs2)OCCCC[C@H](C)O3)cc1 | -3 | -4
C[C@@H]1CCCCO[C@H](CN(C)S(=O)(=O)c2cccs2)[C@@H](C)CN([C@H](C)CO)C(=O)c2cc(NC(=O)Nc3ccc(C(F)(F)F)cc3)ccc2O1 | 10 | 5
C[C@H](CO)N1C[C@H](C)[C@H](CN(C)S(=O)(=O)c2cccs2)Oc2ccc(NC(=O)NC3CCCCC3)cc2C1=O | -12 | -8
